# OX1R antag-1 = antagonists of human orexin 1 receptor (OX1R); OX1R-expressing cells, FRET antagonist read-out; O43613; inhibition, % at 6.6 µM; AID 485270; 330,000 tested, 1.8% active; in the data active = inhibition mostly above about 38%, no sharp cut-off; inactive = mostly below about 40%;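 note: 0% = agonist challenge alone and 100% = reference antagonist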
# Target sequence (O43613 whole entry, looked up): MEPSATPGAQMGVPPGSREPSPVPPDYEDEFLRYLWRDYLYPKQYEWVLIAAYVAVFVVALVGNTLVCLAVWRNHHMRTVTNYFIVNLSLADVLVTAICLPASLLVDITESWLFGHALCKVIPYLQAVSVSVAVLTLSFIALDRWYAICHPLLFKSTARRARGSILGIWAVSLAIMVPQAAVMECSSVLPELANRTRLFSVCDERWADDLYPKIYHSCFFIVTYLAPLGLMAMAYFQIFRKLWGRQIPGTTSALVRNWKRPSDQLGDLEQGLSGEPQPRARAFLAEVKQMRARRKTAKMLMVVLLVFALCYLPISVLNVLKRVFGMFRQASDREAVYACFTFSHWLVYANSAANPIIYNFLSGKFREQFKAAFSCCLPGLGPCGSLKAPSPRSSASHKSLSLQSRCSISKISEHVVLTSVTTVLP
# OX1R antag-2 = blocks the human orexin 1 receptor | O43613 | CHO/OX1R cells, Fluo-8 calcium fluorescence, orexin A | inhibition, % at 5 µM | 330,000 tested, 0.43% active | AID 434989;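 active = inhibition above its plate's threshold, mean inhibition of all tested compounds on the plate plus 3 SD, cut at about 37% in these data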;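 note: 0% = orexin A challenge wells and 100% = SB-334867-A antagonist wells; not every result past the cut was called active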
# An asterisk follows results filed as active; & = joins results of further samples.
# Sample of the layout, 6 compounds:
molecule | OX1R antag-1 | OX1R antag-2
Fc1cccc(CN2CCN(C(=S)NCCc3ccccc3)CC2)c1 | 11 | -24
O=C(O)c1c2c(nc3ccccc13)CCCCC2 | 24 | -10
Cc1ccc(C(=O)NC23CC4CC(CC(C4)C2)C3)c(Cl)c1 | 5 | -38
O=C(NCCc1ccccc1)C1c2ccccc2C(=O)N1Cc1cccs1 (stereo not given) | 35 | -15
COc1ccccc1C(=O)Nc1ccc(S(=O)(=O)NC2=NCCCCC2)cc1 | 15 | -18
COC(=O)CSC1=C(C#N)C(c2ccc(Cl)cc2)C(C(=O)OC)C(=O)N1 (stereo not given) | 46 | -9

# The listing (from the top)
molecule | OX1R antag-1 | OX1R antag-2
Fc1cccc(CN2CCN(C(=S)NCCc3ccccc3)CC2)c1 | 11 | -24
O=C(O)c1c2c(nc3ccccc13)CCCCC2 | 24 | -10
Cc1ccc(C(=O)NC23CC4CC(CC(C4)C2)C3)c(Cl)c1 | 5 | -38
O=C(NCCc1ccccc1)C1c2ccccc2C(=O)N1Cc1cccs1 (stereo not given) | 35 | -15
COc1ccccc1C(=O)Nc1ccc(S(=O)(=O)NC2=NCCCCC2)cc1 | 15 | -18
COC(=O)CSC1=C(C#N)C(c2ccc(Cl)cc2)C(C(=O)OC)C(=O)N1 (stereo not given) | 46 | -9
CCC1CC(C(=O)Nc2ccccc2)C(=O)O1 (stereo not given) | 10 | 4
Cc1cc(C)c(C)c(C(=O)COC(=O)CNC(=O)CN2C(=O)c3ccccc3C2=O)c1C | 14 | -28
COc1ccc(C(=O)NC(=S)Nc2ccc(N3CCCC3)cc2)cc1OC | 23 | -9
O=C(c1cccc(Cl)c1)N1CCC(=O)N(C(COCc2cccc(Cl)c2)Cc2ccccc2)CC1 (stereo not given) | 35 | -22
COc1ccc(CNC(=S)Nc2ccccc2C)cc1 | 11 | -11
Cc1nc(NCC2CCCO2)c2nnn(Cc3ccccc3Cl)c2n1 (stereo not given) | 9 | -26
CC(OC(=O)c1ccco1)C(=O)Nc1ccc(Cl)cn1 (stereo not given) | 11 | -15
O=C(c1cccnc1)N1CCN(S(=O)(=O)c2cccs2)CC1 | 11 | 0
CCOc1ccc(CCNC(=O)CS(=O)(=O)Cc2nc(-c3cccc(OC)c3)oc2C)cc1 | 7 | -10
Cc1ccc(C(=O)CC(=O)c2ccc(C(C)(C)C)cc2)cc1 | 19 | -1
COCCN(CC1CCCN(C2Cc3ccccc3C2)C1)C(=O)c1cccc(C)c1 (stereo not given) | 8 | -19
CN(CCC#N)C(=O)CC1(Cc2ccccc2)CCOC(C)(C)C1 (stereo not given) | 15 | -9
Cc1ccc(OCc2nnc(N)s2)cc1C | 13 | 4
CCN(CC)CCCNC(=O)c1cc(Cl)c(NC(=O)C2=C(C)OCCS2)cc1OC | -11 | -16
COc1ccc(CCNC(=O)CN(c2cc([N+](=O)[O-])ccc2OC)S(C)(=O)=O)cc1OC | 15 | -4
CCCCN(C)C(=O)c1cn(C)c2ccc(S(=O)(=O)N3CCC(C)CC3)cc2c1=O | 8 | 1
Nc1nonc1-n1nnc(C(=O)N/N=C/c2ccc(OCc3ccc(F)cc3)cc2)c1COc1ccccc1 | 27 | 12
CC1(C(=O)N/N=C/c2cc3c(cc2Br)OCO3)CC1(Br)Br (stereo not given) | 27 | -6
CC1=C(C(=O)Nc2cccnc2)C(c2cccnc2)n2nc(-c3cccs3)nc2N1 (stereo not given) | 15 | -4

# 2 records drawn at random from the list so far:
molecule | OX1R antag-1 | OX1R antag-2
COc1ccccc1C(=O)Nc1ccc(S(=O)(=O)NC2=NCCCCC2)cc1 | 15 | -18
Nc1nonc1-n1nnc(C(=O)N/N=C/c2ccc(OCc3ccc(F)cc3)cc2)c1COc1ccccc1 | 27 | 12

# The list continues.
molecule | OX1R antag-1 | OX1R antag-2
COc1ccc(/C=N/N=C2/SCC(=O)N2Cc2ccccc2)cc1 | 13 | -4
CCc1noc(C)c1C(=O)N(C)CC(=O)Nc1ccc(F)c(F)c1F | 17 | 3
O=C(CCC1COc2ccccc2O1)Nc1ncccc1O (stereo not given) | 27 | -1
Nc1ccc(S(=O)(=O)NC2=NCCCCC2)cc1N | 16 | -9
CC(C)c1nc2sc3c(c2c(=O)o1)CCCC3 | 12 | -2
Cc1c(Cl)cccc1NC(=S)NC1CC1 | 1 | -11
CCOC(=O)c1sc(=NC(=O)c2ccc(Br)cc2)n(C)c1C | 14 | 3
COP(=O)(CC(=O)c1ccccc1)CC(=O)c1ccccc1 | 33 | -21
CCCCCc1cc(=O)oc2c(C(CCN3CCCC3)c3cc(OC)c(OC)c(OC)c3)c(OC)cc(OC)c12 (stereo not given) | 0 | 6
COc1ccc(NC(=O)CN2CCN(S(=O)(=O)c3ccc(Br)cc3)CC2)c(OC)c1 | -1 | -21
COCCN1C(=O)N(c2cccc(C)c2)C(=O)C1CC(=O)Nc1ccc(OC)cc1 (stereo not given) | 5 | -21
Nc1nc(CN2CCN(c3cccc(Cl)c3)CC2)nc(N2CCCc3ccccc32)n1 | 20 | -23
N#Cc1cc(-c2ccccc2)nc(NN)n1 | 23 | 12
COc1ccc(CN2CCC(CO)(Cc3ccccc3C(F)(F)F)CC2)c(F)c1 | -2 | -23
COC(=O)Cc1csc(N)n1 | 25&7 | -3&-1
O=C1C(Nc2ccccc2)=CC(c2ccc(O)cc2)N1c1ccccc1 (stereo not given) | 7 | 6
CCOC(=O)c1cc2sccc2n1CC(=O)C(C)(C)C | 38 | -10
COc1cccc(N2CCN(Cc3nc(N)nc(Nc4ccccc4OC)n3)CC2)c1 | 7 | -36
Cc1nc(SCC(=O)OCc2ccccc2)c2c(=O)n(C)c(=O)n(C)c2n1 | 13 | -8
COC(=O)CCCn1nc(NC(=O)c2ccco2)cc1C | 5 | -11
CN1CCN(c2nc3c(c(=O)n(C)c(=O)n3C)n2Cc2ccccc2Cl)CC1 | -6 | -9
CCN(CC)S(=O)(=O)c1ccc(C(=O)NNC(=O)C2CCN(S(=O)(=O)c3ccc(Cl)cc3)CC2)cc1 | 0 | -16
O=C(Nc1cccc2ncccc12)C(c1ccccc1)c1ccccc1 | 2 | -19
COCCCNC(=O)Cn1nc(-c2ccc(C)cc2)ccc1=O | 33 | 0
CC(C)(O)C#Cc1ccc(CN2CCN(Cc3ccccc3)C(CCO)C2)cc1 (stereo not given) | 15 | -29
COc1ccccc1-n1ccnc1SCC(=O)NC(C)(C)C | 10 | -18
Cn1nccc1C(=O)Nc1cc(Cl)ccc1Cl | 10 | -9
Cc1cc(C)nc(-n2nc(C)cc2NC(=O)c2ccc(F)cc2F)n1 | 12 | -23
CC(C)c1ccccc1NC(=O)COC(=O)Cc1ccsc1 | 6 | -1
CCOc1ccccc1NC(=O)CSc1nnc(Cn2c(=O)sc3ccccc32)n1C | 14 | -29
O=c1cc(-c2ccc([N+](=O)[O-])cc2)c2ccc(O)cc2o1 | 32 | -6
CCOc1cc(/C=C2\SC(=NC)N(C)C2=O)c(Br)cc1OC(C)=O | 7 | -23
CCC(=O)c1c(CC)c2n3c1CC[C@H]3CCC2 | 12 | -10
CCC(CC)c1nnc(NC(=O)CN2C(=O)NC3(CCCC3)C2=O)s1 | 42 | -7
Cc1ccc(-c2ocnc2C(=O)N2CCOCC2)cc1 | -9 | -15
O=C(CSc1nc2ccccc2c(=O)n1-c1ccc(SC(F)F)cc1)Nc1ccc(N2CCOCC2)cc1 | 6 | -9
CC(=O)c1cccc(NC(=O)Nc2ccc(C(=O)N3CCCC3)cc2)c1 | 1 | -27
C/C(CC(=O)Nc1ccccc1-c1ccccc1)=N\NC(=O)COc1ccc(C)cc1Br | 23 | -25
COc1ccc(NC(=S)N2CCCCC2c2cccnc2)cc1 (stereo not given) | 4 | -7
CCn1c(SCc2ccccc2)nnc1-c1cccnc1 | 15 | -10
CCOc1ccc(-c2nc(CSc3nncs3)cs2)cc1OC | 11 | -20
Cc1cc(C)cc(OCc2nnc(SCC(=O)c3ccc(Br)cc3)o2)c1 | 23 | -12
CCc1ccccc1OCC(=O)Nc1ccc(S(N)(=O)=O)cc1 | 9 | 2
Cn1cc(SCC(=O)Nc2ccc3c(c2)OCCO3)c2ccccc21 | 13 | -20
Brc1ccc(OCCCOc2cccc3cccnc23)cc1 | 14 | -30
CCCC(=O)NC(=S)Nc1cccc2c(O)cccc12 | 12 | -8
O=C1NC(c2ccc(O)cc2)Nc2ccccc21 (stereo not given) | 6 | -4
Cc1ccc(C(=O)NCC(=O)NCCCc2ccccc2)s1 | 9 | -21
O=C(CN1C(=O)/C(=C/c2ccco2)SC1=S)NC1CCS(=O)(=O)C1 (stereo not given) | 28 | -7
CCOc1ccccc1Oc1coc2cc(OCC(=O)O)ccc2c1=O | 25 | -13

# Further structures follow.
molecule | OX1R antag-1 | OX1R antag-2
COc1cc(N/C(N)=N/c2nc(C)cc(C)n2)c(OC)cc1Cl | 17 | -11
CC(C)c1ccc(N2CC(C)(C)C2=O)cc1 | 8 | -8
CCC1CCCCN1CC(=O)c1c(C)[nH]c2ccccc12 (stereo not given) | 23 | 0
CN(CC(=O)Nc1ccc(S(=O)(=O)N2CCCC2)cc1)Cc1c(F)cccc1Cl | 6 | -16
COc1ccc(S(=O)(=O)NC2CC(=O)N(c3ccc(C)c(C)c3)C2)cc1 (stereo not given) | 14 | -26
O=C(Nc1ccc(C(=O)O)cc1)/C(=C/c1ccc([N+](=O)[O-])cc1)NC(=O)c1ccccc1 | 77 | -6
CCOC(=O)c1cc(-c2ccccc2C)n(CC2CC(c3cccc([N+](=O)[O-])c3)=NO2)n1 (stereo not given) | 23 | -23
CCCCCCC(CC(=O)NCc1cccnc1)CC(=O)NCc1cccnc1 | 9 | -5
CCO[C@H]1OC(C(=O)N2CCN(C)CC2)=C[C@@H](C(C)(C)C)[C@@H]1CCCO | 14 | -8
Cc1ccc(C2=N/C(=C\c3c(C)nn(-c4ccccc4)c3N3CCCC3)C(=O)O2)cc1 | 0 | -2
Cn1c(=O)c2c(nc(Cl)n2Cc2ccncc2)n(C)c1=O | 1 | -7
CCNC(=O)COC(=O)c1cc(=O)[nH]c2ccccc12 | 3 | -17
Brc1ccc(-c2csc(Nc3nc(-c4ccc(Br)cc4)cs3)n2)cc1 | 3 | -19
CC(C)Cn1c(SCC(=O)c2c(N)n(C)c(=O)n(C)c2=O)nc2ccccc21 | 19 | -16
CC(C)CCn1c(NCCc2ccccc2)nc2c1c(=O)n(C)c(=O)n2C | 8 | -39
O=C(O)CNC(=O)CCn1nnc2ccccc2c1=O | 15 | -3
O=C(COc1ccc(Cl)cc1Cl)NNC(=S)Nc1ccc(F)cc1 | 10 | -3
O=C(Nc1ccccc1C(=O)NCc1ccccc1)c1ccccc1 | 12 | -11
Cc1nc(-c2ccncc2)nc(NCCNc2ccc(C(F)(F)F)cn2)c1Cl | 6 | -30
CS(=O)(=O)N1CCC(C(=O)N2CCN(c3cccc(Cl)c3)CC2)CC1 | 5 | -22
Cc1ccnc(NS(=O)(=O)c2ccc(NC(=O)C3CCCO3)cc2)n1 (stereo not given) | 6 | -1
N#CCc1c(C#N)c(N)nc(N2CCN(Cc3ccc4c(c3)OCO4)CC2)c1C#N | 3 | 17
C[C@@H](CN1C2=NC[C@H](Cc3ccc(O)cc3)N2C[C@H]1Cc1ccc(O)cc1)NC(=O)CCC1CCCCC1 | 16 | -8
CC(C)NS(=O)(=O)c1ccc(OCC(=O)Nc2ccc3c(c2)OCCO3)cc1 | 3 | -7
N#Cc1ccc(-c2ccc(F)cc2)nc1Oc1ccc(Cl)c(Cl)c1 | -9 | -7
Cc1ccc(C(=O)Nc2ccccc2N2CCN(C(=O)C(C)C)CC2)cc1 | 6 | -27
CC(C)C(=O)Nc1ncc(Cc2cccc(Cl)c2)s1 | 30 | -30
COc1ccccc1C(=O)N/C(=C/c1ccc(Br)cc1)C(=O)NCCCn1ccnc1 | 2 | -21
O=C(NCC1CCCO1)c1cccc(NC(=O)c2ccccc2)c1 (stereo not given) | 25 | 1
Cc1ccc(C)c(C(C)NC(=O)C2C3CCC(O3)C2C(=O)O)c1 (stereo not given) | 17 | -16
CC(=O)Nc1ccc(N=Nc2ccccc2)cc1 | 41 | 0
Cc1ccc(NC(=O)Nc2cccn(Cc3c(F)cccc3Cl)c2=O)cc1 | 15 | -17
CCOP(=O)(/C(C#N)=C(\C)O)c1ccccc1 (stereo not given) | 4 | -2
Cn1nc(C(=O)Nc2ccc(S(=O)(=O)N3CCOCC3)cc2)c2ccccc2c1=O | 17 | -19
O=C(Nc1ccc2c(c1)OCO2)C1CC(=O)N(c2cccc(Cl)c2)C1 (stereo not given) | 13 | -12
CC(=O)N1CCN(CC(O)COc2ccc(OCc3ccccc3)cc2)CC1 (stereo not given) | 12 | 1
Cn1nc(C(F)(F)F)c(C#N)c1N1CCN(c2ccccc2)CC1 | 14 | -12
C/C(=N\NC(=O)CSc1nc(C)cc(C)n1)c1ccc2c(c1)OCCO2 | 20 | -20
CN(Cc1ccccc1)C(=O)C1CCCN(Cc2cccc(Cl)c2)C1 (stereo not given) | 22 | -22
CCCS(=O)(=O)N1CCC(C(=O)NCCCOCC)CC1 | 3 | -1
C/C(=N\NC(=O)c1cccs1)c1ccc2c(c1)OCO2 | 15 | -13
Cc1cccc2cc(C#N)c(N3CCOCC3)nc12 | 12 | -14
c1csc(-c2noc(CN3CCN4CCCC4C3)n2)c1 (stereo not given) | 15 | -7
O=[N+]([O-])c1cccc(S(=O)(=O)N2CCN(S(=O)(=O)N3CCCCCC3)CC2)c1 | 5 | -7
N#CC1=C(N)C(C#N)(C#N)C(c2cccnc2)C2CC(c3ccccc3)CC=C12 (stereo not given) | 41 | -16
O=S(=O)(NCc1ccc2c(c1)OCO2)c1cccc2nsnc12 | 53 | -9
Cc1cccc2cc(C#N)c(NCCNC(=O)COc3ccccc3)nc12 | 14 | -9
O=C(CSc1nnc(-c2ccco2)o1)N1CCN(c2ccccc2)CC1 | 2 | -21
CC1CN(C(=O)C(c2ccccc2)c2ccccc2)CC(C)O1 (stereo not given) | 15 | -14
O=[N+]([O-])c1cccc(-c2csc(N/N=C/c3cccc(O)c3)n2)c1 | 29 | -2
CCOC(=O)CN(C)Cc1cn(C)nc1-c1ccc(Oc2ccccc2)cc1 | 18 | -26

# Source: PubChem (The Scripps Research Institute Molecular Screening Center)

# Not all compounds are listed, and most or all hits are left out here.
